CSC inhib: cancer stem cell inhibition. inhibition, % at 7.5 µM. AID 2717. 300,000 compounds, 1.1% hits. cancer stem cell-like cells viability, luminescence;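 active = mean at 75% or more and at least half the replicates too; tested in HMLE shEcad cells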;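 also: 0% = median of negative and 100% = median of positive control wells; the first replicate is given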
PABP polyA inh: blocks human PABP binding to poly(A) RNA; P11940; 290,000 compounds, 1% hits; inhibition, % at 35 µM; AID 2014; fluorescence polarization;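 active = 50% or more with normal probe brightness, or confirmed in later tests; about a fifth of its hits are not listed in these tables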;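 also: calls also rest on retests at 20 µM and on dose response follow-up; controls were probe without protein and protein plus probe with vehicle; some compounds called inactive have numbers as strong as hits; many hits fall short of the cut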
Target sequence (P11940 whole entry, looked up): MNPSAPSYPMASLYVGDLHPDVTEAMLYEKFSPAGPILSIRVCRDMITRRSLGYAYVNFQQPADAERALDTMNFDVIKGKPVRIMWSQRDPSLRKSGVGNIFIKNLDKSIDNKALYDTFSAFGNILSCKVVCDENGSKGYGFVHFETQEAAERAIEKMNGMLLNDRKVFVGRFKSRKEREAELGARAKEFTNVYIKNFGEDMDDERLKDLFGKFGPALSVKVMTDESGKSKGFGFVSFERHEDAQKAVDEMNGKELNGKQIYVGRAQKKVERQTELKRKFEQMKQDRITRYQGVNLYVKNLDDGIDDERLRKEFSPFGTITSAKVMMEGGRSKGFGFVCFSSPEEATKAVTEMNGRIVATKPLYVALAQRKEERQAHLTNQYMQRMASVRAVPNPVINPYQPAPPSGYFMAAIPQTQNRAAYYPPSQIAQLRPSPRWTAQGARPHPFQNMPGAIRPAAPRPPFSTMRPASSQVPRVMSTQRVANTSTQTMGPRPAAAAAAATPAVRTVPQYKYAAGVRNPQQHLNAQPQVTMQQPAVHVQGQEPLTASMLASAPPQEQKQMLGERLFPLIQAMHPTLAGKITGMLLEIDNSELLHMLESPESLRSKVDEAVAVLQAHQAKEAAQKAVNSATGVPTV
UUG fidelity: modulators of start codon recognition fidelity in yeast. S. cerevisiae UUG-firefly luciferase reporter, luminescence/redox ratio. activity score, % at 18.7 µM. 350,000 compounds, 0.13% hits;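 active = replicate mean at a twofold rise or more, about +100% in these data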;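 also: firefly luciferase made from a UUG start codon reports start codon fidelity; reporter light over untreated wells divided by growth signal over untreated wells; some hits fall short of that in this replicate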
eIF4H inh: inhibitors of RNA binding by human eIF4H; Q15056; eIF4H fluorescence polarization binding assay; inhibition, % at 35 µM; 290,000 compounds, 0.94% hits; AID 2012;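 active = 50% or more with normal probe brightness, or confirmed in later tests; about a fifth of its hits are not listed in these tables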;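 also: calls also rest on retests at 20 µM and on dose response follow-up; 0% = protein and probe with vehicle and 100% = probe without protein; strong numbers were not always called active; many hits fall short of the cut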
Rce1 inh: blocks yeast Ras-converting enzyme; yeast membranes, quenched prenylated peptide cleavage fluorescence; calls only; 290,000 compounds, 0.27% hits;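 active = fall in fluorescence gain of 50% or more versus controls, with final raw signal at or below 3038400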;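 also: plate controls were neutral control wells for no effect and wells lacking membranes for full effect; tested at 10 µM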
Target sequence (Q03530 whole entry, looked up): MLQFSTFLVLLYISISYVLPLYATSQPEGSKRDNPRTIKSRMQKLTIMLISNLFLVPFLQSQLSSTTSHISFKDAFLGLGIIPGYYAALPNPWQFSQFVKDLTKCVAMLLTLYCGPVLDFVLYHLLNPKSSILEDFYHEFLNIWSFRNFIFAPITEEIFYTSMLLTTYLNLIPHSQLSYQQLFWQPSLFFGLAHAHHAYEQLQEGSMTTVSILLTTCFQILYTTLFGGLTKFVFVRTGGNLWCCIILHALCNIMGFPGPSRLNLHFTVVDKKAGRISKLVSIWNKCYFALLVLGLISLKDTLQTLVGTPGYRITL
HIV Env fusion: inhibitors of HIV Env-mediated cell fusion | inhibition, % at 12.3 µM | HeLa-JRFL Env/CEM21 cell fusion, luciferase | AID 651610 | 360,000 compounds, 1.1% hits;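 active = mean replicate inhibition score of at least 50 and every replicate individually at or above 50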;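 also: 0% = plate neutral controls and 100% = maraviroc near 300 nM; one replicate is shown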
MT1-MMP act inh: blocks activation of human MT1-MMP | 360,000 compounds, 0.061% hits | HT1080 RFP-PRO-GFP cells, GFP/RFP ratio fluorescence, overnight; percent of plate control window, DMSO zero | P50281 | GFP/RFP ratio change, % at 20 µM;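 active = GFP/RFP ratio change of at least 30% with cell ATP level not reduced by more than half and red fluorescence within 50% of control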; also: strong numbers were not always called active
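Test system: HT1080 cells expressing an RFP-PRO-GFP fluorescent reporter construct / Compound dosing: single-point 20 µM compound, 1% DMSO / Schedule: cells overnight before dosing, compound overnight, 37 °C, 5% CO2 / Evaluation: GFP/RFP fluorescence ratio / Control set: DMSO and RFP-L50D-GFP cell wells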
MT1-MMP act inh RFP: recorded beside MT1-MMP act inh, whose call it bears; RFP signal change, %; measured here: RFP expression control read;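 0 = vehicle wells; hits needed this value within 50% of zero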
An asterisk follows results filed as active; i = inactive; · = not tested or not shown; & = joins results of further samples; [ ] = another dose, or the depositor's remark. This is a random part of the collection; any-hit rate near 2.9%.

SMILES	CSC inhib	PABP polyA inh	UUG fidelity	eIF4H inh	Rce1 inh	HIV Env fusion	MT1-MMP act inh	MT1-MMP act inh RFP
COc1cc2nc(=S)n3[nH]c(COc4ccccc4C)nc3c2cc1OC	14	-4	-17	16	i	-16	17	2
CCOc1ccc(Cn2nnc(C(=O)Nc3cc(C)cc(C)c3)c2N)cc1	·	-4	-2	0	i	-11	4	0
O=[N+]([O-])c1ccc(N2CCC(=NOCc3ccc(Cl)cc3)CC2)cc1	27	-6	-3	-4	i	75*	3	-15
Cc1cc(C)c(OCCNCc2ccccc2)c(C)c1	·	7	-3	19	i	6	2	4
CC1=NN(c2nc3ccccc3[nH]2)C(=O)/C1=C/N(C)C	91*	3	·	12	i	·	-2	3
Cc1cccc(C(=O)NNC(=O)c2ccc(Cl)cc2)c1O	-2	1	-21	-11	i	·	8	6
O=C(NCCCN1CCCC1=O)c1ccccc1OCc1ccc(Cl)cc1Cl	-7	·	-14	·	·	8	-2	-1
OCCCc1nc2ccccc2n1CCOc1ccccc1	-2	-3	-11	1	i	·	1	1
CCCOc1ccc(Cc2c(O)nc(N)[nH]c2=O)cc1C	-23	4	-3	-1	i	-10	2	4
Cc1cccc(N2C(=O)C3C4C=CC(C5CC45)C3C2=O)n1 (centres undefined)	-13	0	·	-4	i	15	0	0
O=C(CC1S/C(=N\S(=O)(=O)c2ccccc2)N(c2ccccc2)C1=O)Nc1ccc(F)cc1 (centres undefined)	0	-6	-9	-1	i	-19	-3	2
Cc1ccc(NC(=O)c2ccccc2Br)cc1S(=O)(=O)N(C)C	17	9	·	-2	i	1	-3	-4
O=C(CCl)N=c1sccn1Cc1ccccc1Cl	21	-6	-32	-7	i	134*	-23	-25
O=C1Nc2ccccc2/C1=C/c1ccnc2ccccc12	4	12	-18	2	i	18	-10	-12
CCOC(=O)CCc1c(C)nc2cc(-c3ccccc3OC)[nH]n2c1=O	-8	17	-17	-6	i	2	3	8
CC(C)(C)c1nnc(NC(=O)C2CCN(C(=O)c3ccco3)CC2)s1	-8	-5	5	-1	i	-2	1	-4
Cc1cc(NC(=O)c2cccc3c2C(=O)N(C2CCCCC2)C3)ccc1Br	9	-3	-8	2	i	·	-2	-1
O=C(Nc1ccc2nsnc2c1)N1CCCCC1	-12	5	-22	12	i	5	2	1
O=C1C2CCCN2C(c2ccc(F)cc2)N1c1ccc(Cl)cc1 (centres undefined)	19	2	-13	49	i	5	3	4
CCOc1cc(NC(=S)Nc2cccc(C)c2)c(OCC)cc1NC(=O)CC(C)C	·	-2	-19	-11	·	-11	7	1
CC(C)(C)[C@H]1C=C(C(=O)N2CCN(Cc3ccccc3)CC2)O[C@@H](OCc2ccc(CO)cc2)C1	5	-2	-6	10	i	-41	9	-10
Cc1cccc(NC(=O)c2ccc(F)c(S(=O)(=O)N3CCC4(CC3)OCCO4)c2)c1	1	-1	-6	-14	i	11	4	-6
Cc1[nH]n(-c2ccccc2)c(=O)c1CCOC(=O)c1cccc(C(F)(F)F)c1	-10	7	-2	-6	i	-40	-3	-10
Cc1ccc2nc(NC(=O)C3=NN(c4ccccc4)C(=O)CC3)sc2c1	4	-6	·	2	i	-5	8	3
Cc1ccc(NC(=O)Cn2cc(S(=O)(=O)c3ccccc3)c(=O)c3cc(F)ccc32)cc1	-14	4	-20	11	i	8	4	1
Continuation:
SMILES	CSC inhib	PABP polyA inh	UUG fidelity	eIF4H inh	Rce1 inh	HIV Env fusion	MT1-MMP act inh	MT1-MMP act inh RFP
Cn1c(=O)n(Cc2ccc(F)cc2)c(=O)c2c1nc1n2CCCN1C1CCCCC1	78*	4	-1	4	i	·	14	-11
CC(C)C(NC(=O)C1CCC(C(C)(C)C)CC1)C(=O)NCc1cccnc1 (centres undefined)	-12	-2	·	-9	i	3	5	1
Cc1cn(CC(=O)NCCCn2ccnc2)c(=O)[nH]c1=O	·	·	-20	·	·	17	4	5
CC[C@@H](C)[C@H](CN[C@H](CNC)C(C)C)NC[C@@H](C)c1ccc(CC(C)C)cc1	45	-4	-12	-2	i	33	1	-2
COCCN=c1scc(-c2ccccc2)n1/N=C/c1c[nH]c2ccccc12	29	-1	·	-3	i	5	3	0
Cc1ccccc1SCC(=O)N/N=C/c1ccc(F)cc1	-5	4	-18	3	i	4	-6	-3
CC1CN(C(=O)Cn2cc(S(=O)(=O)CC(=O)N(C)c3ccccc3)c3ccccc32)CC(C)O1 (centres undefined)	-1	-9	2	-9	i	·	-4	2
COc1ccc(NC(=O)c2cc(OC)c(OC)c(OC)c2)cc1S(=O)(=O)N1CCCCC1	-1	1	2	-13	i	2	14	-2
C[C@@H]1CN([C@H](C)CO)C(=O)c2cc(Br)cnc2O[C@H]1CN(C)Cc1ccccc1	·	·	-19&-11	·	·	-31[16.7 µM]	3	4
Cc1ccc(OCC(=O)NNC(=O)Cn2c(=O)cnc3ccccc32)cc1	-5	·	·	·	·	3	-1	1
Nn1c(COc2ccccc2F)nnc1SCC(=O)NC1CCS(=O)(=O)C1 (centres undefined)	3	·	-9	·	i	-5	1	3
O=C(c1cccs1)N1CCN(C2CCCCC2)CC1	20	32	-7	5	·	-26	2	4
Cc1cc(S(=O)(=O)NCC(C)C)ccc1OCC(=O)NC1CC1	-16	7	-6	-10	i	-1	0	0
O=C(Nc1ccccc1)Nc1cccn(Cc2c(F)cccc2Cl)c1=O	32	-6	·	-3	i	-32	·	·
COc1ccc2nc3ccccc3nc2c1	15	34	-18	39	i	·	-4	1
COc1ccc(S(=O)(=O)NCC2CCCN(Cc3cn(C)nc3C)C2)cc1 (centres undefined)	17	-2	-7	-2	i	0	3	3
COCCOC(=O)c1c(NC(=O)CN(C)c2ccccc2)sc(C(N)=O)c1C	·	6	·	1	i	14	-4	-3
COc1ccc(N2CCN(CC(=O)Nc3nnc(-c4ccccc4)s3)CC2)cc1	-4	3	-17	2	·	·	4	3
CCCCCCCC[n+]1c(C)n(-c2ccccc2)c2ccc(NC(C)=O)cc21	-2	-15	·	-3	i	4	-5	-26
Cc1cc(C)c(NC(=O)OCCN2CCOCC2)c(C)c1	-5	-11	9	-4	i	·	2	4
CC(C)CNC(=S)N(CCN(C)C)Cc1cc2cc3c(cc2[nH]c1=O)OCO3	14	-7	-21	-1	i	-4	-4	-1
CCC(C)NCCCOc1ccc([N+](=O)[O-])cc1 (centres undefined)	-1	-1	-10	5	i	17	-9	3
CCc1ccccc1NC(=O)c1cc(C)no1	17	7	0	1	i	0	-2	1
Cc1cccc(C(=O)Nc2ccnc(-c3cccnc3)n2)c1	0	8	-19	-5	i	19	0	-1
CCOc1cc(C(=O)NCc2ccco2)cc(OCC)c1OCC	3	11	-34	5	·	-2	·	·

4 of these compounds, set out differently:
Order of results – CSC inhib	PABP polyA inh	UUG fidelity	eIF4H inh	Rce1 inh	HIV Env fusion	MT1-MMP act inh	MT1-MMP act inh RFP
Cc1ccccc1SCC(=O)N/N=C/c1ccc(F)cc1
→ -5	4	-18	3	i	4	-6	-3
O=C(c1cccs1)N1CCN(C2CCCCC2)CC1
→ 20	32	-7	5	·	-26	2	4
COc1ccc(N2CCN(CC(=O)Nc3nnc(-c4ccccc4)s3)CC2)cc1
→ -4	3	-17	2	·	·	4	3
CC(C)(C)c1nnc(NC(=O)C2CCN(C(=O)c3ccco3)CC2)s1
→ -8	-5	5	-1	i	-2	1	-4

Going on with the list:
SMILES	CSC inhib	PABP polyA inh	UUG fidelity	eIF4H inh	Rce1 inh	HIV Env fusion	MT1-MMP act inh	MT1-MMP act inh RFP
COc1cccc(C(=O)OCCN2C(=O)c3ccccc3C2=O)c1OC	-10	1	2	-9	i	-30	10	10
C/C(=N\N1C(=O)c2ccccc2C1=O)c1cccc([N+](=O)[O-])c1	-15	6	·	9	i	20	2	3
Cc1c(C(=O)NNC(=O)c2csc(N3CCOCC3)n2)oc2ccccc12	14	·	-10	·	·	·	2	5
CCN(CC)Cc1nc2c(c(=O)[nH]1)C1(CCCCC1)Cc1ccccc1-2	17	-4	3	18	i	·	2	-8
Cc1ccc(CN2CCN(CC(C)C)C(CCO)C2)s1 (centres undefined)	-2	4	·	-1	i	-13	0	-4
CC(C)Cn1c(SCC(=O)Nc2ccc3[nH]c(=O)[nH]c3c2)nc2ccccc2c1=O	-2	·	-4	·	i	-13	-6	-6
COC(=O)c1c(NC(C)=O)sc2c1CCCC2	-12	3	-13	5	i	·	0	6
O=C(NNc1ccc(F)cc1F)C1CCC1	-4	-2	-1	-1	i	-12	0	2
O=C(OCC(=O)c1c[nH]c2ccccc12)c1cc2ccccc2cc1O	-3	11	-14	4	i	·	1	-6
Cn1c2c(c(=O)n(C)c1=O)CN(CCc1ccccc1)CN2	-8	-4	-17	-4	i	-40	-2	3
CCn1c(CCCNC(=O)c2ccco2)nc2ccccc21	7	-3	-13	0	i	7	-2	2
C/C(Cl)=C\Cn1c(N2CCCC2)nc2c1c(=O)n(C)c(=O)n2C	0	0	-14	1	i	4	2	-3
NC(=S)Nc1ccc(S(=O)(=O)c2ccc(NC(N)=S)cc2)cc1	-4	-5	-28	-14	i	13	2	4
O=C(CCC(=O)c1cccs1)NCCc1ccc(F)cc1	-9	·	-14	·	i	·	-3	5
COc1ccc(N(CC(=O)NC2CC2)S(=O)(=O)c2ccccc2)cc1	-6	0	-7	9	i	3	0	2
CC(=O)Nc1sc(NC(=O)c2ccc([N+](=O)[O-])cc2)nc1-c1cccs1	-2	1	·	6	i	-23	2	-4
COCCn1c(-c2ccc(NC(C)=O)cc2)nc2c1c(=O)[nH]c(=O)n2CC(C)C	14	9	-11	-8	i	-52	0	0
C=CCn1c(=O)c(C(=O)NCCc2ccc(Cl)cc2)c(O)c2cc(OC)c(OC)cc21	6	9	-26	5	i	-44	-1	2
COc1ccc(NC(=O)CN(C)C(=O)c2ccccc2Sc2ncnc3sc(C)c(C)c23)cc1	-3	·	0	·	i	10	6	-3
CCOC(=O)C1CCN(C(=O)CCn2c(=O)[nH]c3ccccc3c2=O)CC1	-9	-3	-14	-8	i	-9	3	0
OCCNc1nc(-c2ccccc2)nc2ccccc12	-6	12	·	9	i	6	1	-4
CCN1CCN(CCCN(Cc2ccco2)C(=S)Nc2ccc(Cl)cc2)CC1	26	1	-22	4	i	1	-1	-5
O=C(CCc1ccccc1)NC1(Cc2ccccc2)CCN(CCc2cccs2)C1=O (centres undefined)	-17	·	17	·	·	-2	-4	-5
O=C(c1ccc(Cl)c(Cl)c1)c1cnc(Nc2ccccc2)s1	-5	-4	-21	2	i	-56	1	4
COc1cc(Nc2ccc(S(N)(=O)=O)cc2)c([N+](=O)[O-])nc1[N+](=O)[O-]	-21	4	-7	-5	i	-27	4	0
Additional entries follow:
SMILES	CSC inhib	PABP polyA inh	UUG fidelity	eIF4H inh	Rce1 inh	HIV Env fusion	MT1-MMP act inh	MT1-MMP act inh RFP
CC12CCC(=O)N1C(C(=O)N1CCN(S(=O)(=O)c3ccccc3F)CC1)CS2 (centres undefined)	7	·	·	·	i	2	1	5
COc1cc(Cl)c(C)cc1NC(=O)CSc1nnc(-c2cccnc2)n1Cc1ccco1	-5	1	-14	3	i	22	-3	-4
COCC(=O)N/N=C\c1ccc(OC/C=C/c2ccccc2)c(OC)c1	17	1	-14	-4	i	19	0	1
O=C(CCC1COc2ccccc2O1)Nc1ccccn1 (centres undefined)	-11	-2	-8	-12	i	·	5	2
Cc1ccc(C(=O)CSc2ncnc3ccccc23)o1	13	-17	-27	-5	i	-1	-4	-5
O=C(COc1ccccc1)Nc1ccc(-c2ccc(N3CCOCC3)nn2)cc1	26	·	2	·	i	-74	6	0
Cn1c(=O)c2c(ncn2CCCC(=N)N2CCOCC2)n(C)c1=O	-14	8	·	-5	i	-18	1	2
COc1ccc(CCN2C(=O)c3cccnc3C2=O)cc1OC	·	-7	-20	4	i	·	2	1
O=C(CSc1ccccn1)Nc1ccc2c(c1)oc1ccccc12	1	10	·	-7	i	-42	1	-4

Compound activity: PubChem BioAssay, several laboratories
